From PubChem
Sfp PPTase inh: Sfp phosphopantetheinyl transferase inhibition. Biochemical Sfp PPTase activity, qHTS. AID 1490. Potency, µM, for inactives: max response, negative = inhibition, hits mostly inhibitors. Q9F4F7. 3.5% of 310,000 active; active = well fitted inhibition curve with a large enough effect; inconclusive = small, poorly fitted or top-dose-only effect, or another doubt; inactive = no such curve, though single readings can be large or run the other way;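 note: the enzyme is Sfp with the accession as filed and its product quenches rhodamine fluorescence; potency is the fitted concentration of half-maximal effect; 0% = enzyme reaction without inhibitor and -100% = no enzyme wells; top concentration of the series not given in the record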
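Compounds were incubated with enzyme (final 15 nM) for 15 min at room temperature before substrate addition started the reaction. Fluorescence at 525 nm excitation, 598 nm emission was recorded immediately and after 30 minutes.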
PINK1 expr mod: modulators of PINK1 expression | PINK1 immunofluorescence, high-content cytometry, 24 h | 0.2% of 410,000 active | Potency, µM (highest dose often 76.6 µM), without a hit: at the highest dose activation (PINK1 increase), most hits filed as activators; active = well fitted activation curve with a large enough effect; inconclusive = small, poorly fitted or top-dose-only effect; inactive = flat fitted curve, though single readings scatter; cell line not stated here;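 note: potency is the fitted concentration of half-maximal effect; % of control where 0% means no effect; nearly all actives have a fitted effect of over 65% in size; a mitochondrial uncoupler was the plate control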
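Stable cell line, 250 cells/well, 12 h attachment; compounds pinned at 5 concentrations, 24 h; CCCP control. Fixed with nuclear dye, primary antibodies 12 h at 10 degrees C, secondary plus cell stain; laser-scanning cytometer read.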
TRPML1 ag: human mucolipin-1 channel agonism; TRPML1-expressing cells, Ca2+ dye fluorescence, FDSS; host cell line not named in the record; reference of the full effect not given here; activation, % (test concentration not listed); 0.12% of 410,000 active; AID 624414; in the data active = activation above about 50%; inconclusive = about 30% to 50%; inactive = below about 30%; note: 0% is about no effect; the text of the record puts the active cut at 80%
Target sequence (Q9GZU1 whole entry, looked up): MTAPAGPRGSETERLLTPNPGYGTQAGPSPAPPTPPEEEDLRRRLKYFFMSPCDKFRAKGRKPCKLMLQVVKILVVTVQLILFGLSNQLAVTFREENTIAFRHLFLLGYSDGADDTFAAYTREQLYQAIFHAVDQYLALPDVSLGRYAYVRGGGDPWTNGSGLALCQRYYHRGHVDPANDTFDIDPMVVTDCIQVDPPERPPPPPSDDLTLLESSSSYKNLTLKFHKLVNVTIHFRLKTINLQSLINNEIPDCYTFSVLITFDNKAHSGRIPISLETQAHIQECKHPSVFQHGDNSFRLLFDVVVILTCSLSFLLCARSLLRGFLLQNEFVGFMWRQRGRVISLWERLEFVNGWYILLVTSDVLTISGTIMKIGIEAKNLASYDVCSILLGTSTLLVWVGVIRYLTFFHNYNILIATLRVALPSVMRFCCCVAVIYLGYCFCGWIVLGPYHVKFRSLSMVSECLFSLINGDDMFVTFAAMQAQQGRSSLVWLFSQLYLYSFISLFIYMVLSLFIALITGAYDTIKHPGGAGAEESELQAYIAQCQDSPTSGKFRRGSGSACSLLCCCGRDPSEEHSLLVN
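Tetracycline-induced TRPML1-DL cells are seeded and incubated overnight before loading with a no-wash Ca2+ dye and quencher. Agonist activity is taken from the 110 s fluorescence read following compound pin-transfer on an FDSS, before EC80 54-4 challenge.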
TRPML1 inh: inhibitors of human TRPML1 channel. activity change, negative = inhibition, % (test concentration not listed). TRPML1-inducible cells, Ca2+ dye fluorescence, FDSS; active compounds read low; inhibition of EC80 agonist-evoked calcium signal. 0.02% of 390,000 active. AID 624415; in the data active means activity change below about -50%; inconclusive means about -30% to -50%; inactive means above about -30%;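 note: stimulus is agonist 54-4 at its EC80 concentration; % is set by controls: 0 for no effect and ±100 for the full control effect; compound concentration not given in the record; the text of the record puts the active cut at -80%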
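TRPML1-DL cells, Tet-induced overnight (~16 h, 37 °C) at 1,500 cells/well, were loaded with Ca8 no-wash dye plus quencher for 45-90 min at room temperature. Compounds were pinned during FDSS kinetic reading; agonist 54-4 at EC80 (4 uM final) then added.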
ClpP mod: qHTS Assay for Activators of ClpP | ATP-dependent Clp protease proteolytic subunit (Bacillus subtilis (strain 168)), P80244 | purified B. subtilis ClpP, FRET peptide cleavage, 20 min | Potency, µM (top dose mostly 57.5 µM), for the others: at the highest dose activity change, negative = active | 1.9% of 340,000 active | AID 651965, 2013; active = well fitted falling curve with a large enough effect; inconclusive = small, poorly fitted or top-dose-only effect; inactive = no such curve, though single readings can be large or run the other way; note: potency is the fitted concentration of half-maximal effect; the source files actives as falling curves though it sought activators and does not explain the sign; nearly all actives have a fitted effect of over 65% in size; many hits overshoot -100%
Target sequence (P80244 whole entry, looked up): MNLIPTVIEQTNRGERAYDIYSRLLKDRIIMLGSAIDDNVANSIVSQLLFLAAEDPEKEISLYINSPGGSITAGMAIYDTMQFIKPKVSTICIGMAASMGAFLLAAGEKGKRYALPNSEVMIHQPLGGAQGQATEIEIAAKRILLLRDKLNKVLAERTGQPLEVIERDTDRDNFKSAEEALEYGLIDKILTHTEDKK
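FRET quenching reversal measured ClpP activation: 10 microg/mL B. subtilis ClpP at pH 8 with the FRET-FV decapeptide, read at 430 nm after 320 nm excitation. The 20-min minus 0-min signal was scaled between DMSO/no-enzyme wells and ADEP (5.8 microM final).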
Menin-MLL FL inh: menin-MLL binding inhibition, fluorescein peptide | Fluorescence polarization, fluorescein-MLL peptide displacement from menin | FP activity change, % at 61.4 µM | 290,000 tested, under 10 active | AID 1766; inconclusive = falling polarisation curve, or a change in total fluorescence; inactive = total fluorescence flat and polarisation flat or rising; no compound was filed as active; the % refers to the polarisation; negative = inhibition;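 note: % of control where 0% means no effect; inhibitors lower the polarisation; unlabelled MLL peptide was the positive control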
TRPV1 PAM: human TRPV1 potentiation | Q8NER1 | TRPV1-expressing cells, Fluo-8 calcium influx, capsaicin EC20 potentiation; host cell line not named in the record; control for the full effect not named in the record | potentiation, % at 8.33 µM | 0.02% of 320,000 active | AID 540277; active means potentiation above 80%; inconclusive means 30% to 80%; inactive means below 30%; note: 0% is about no effect
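Cells expressing TRPV1 were dye-loaded with Fluo-8 and read kinetically: 10 s baseline, 3 min after compound (agonist portion), then 2 min after EC20 capsaicin (allosteric enhancer portion). Calcium-bound dye fluorescence at 480/520 nm.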
The depositor's hits bear a star; u = inconclusive; x = not tested or not shown; & = joins results of further samples; [ ] = dose if it differs, or a comment. Rows were taken by chance; 4.4% or so of the library scored in one or more.

The first 4 entries, to show the layout:
canonical_smiles | Sfp PPTase inh | PINK1 expr mod | TRPML1 ag | TRPML1 inh | ClpP mod | Menin-MLL FL inh | TRPV1 PAM
CC1C(=O)N(Cc2ccc([N+](=O)[O-])cc2)c2ccccc2N1C(=O)c1c(F)cccc1F (stereo not given) | -6% | 1.3% | -0.2 | 16 | -2.6% | 3.1 | 7
Cc1cccc(C(=O)NC(=S)N(C)C2CCCCC2)c1 | 18% | 1.5% | 0.2 | -11 | 0.7% | -5.2 | -5
CCc1nc2ccc(C(=O)NCCc3c[nH]c4ccccc34)cn2c1N(C=O)CCC(C)C | x | -0.7% | -0.7 | x | -13% | x | x
O=S(=O)(NC1CCCC1)c1ccc(F)cc1F | x | 1.8% | -0.4 | -11 | 0.0% | x | x

All compounds of this part, repeating the preview:
canonical_smiles | Sfp PPTase inh | PINK1 expr mod | TRPML1 ag | TRPML1 inh | ClpP mod | Menin-MLL FL inh | TRPV1 PAM
CC1C(=O)N(Cc2ccc([N+](=O)[O-])cc2)c2ccccc2N1C(=O)c1c(F)cccc1F (stereo not given) | -6% | 1.3% | -0.2 | 16 | -2.6% | 3.1 | 7
Cc1cccc(C(=O)NC(=S)N(C)C2CCCCC2)c1 | 18% | 1.5% | 0.2 | -11 | 0.7% | -5.2 | -5
CCc1nc2ccc(C(=O)NCCc3c[nH]c4ccccc34)cn2c1N(C=O)CCC(C)C | x | -0.7% | -0.7 | x | -13% | x | x
O=S(=O)(NC1CCCC1)c1ccc(F)cc1F | x | 1.8% | -0.4 | -11 | 0.0% | x | x
COc1ccc2[nH]c(=O)c(CN(C(=O)C3CCCO3)c3cccc(C)c3)cc2c1 (stereo not given) | 18% | x | x | x | x | 2.4 | 7
CCCCCCC(=O)N1CCCC(c2nc(-c3cccc(OC)c3)no2)C1 (stereo not given) | 11% | 1.9% | 3.0 | 37 | x | 6.1 | -19
O=C(Cn1c(=O)nc(-c2ccccc2)c2ccccc21)N1CCN(c2ccc(F)cc2)CC1 | x | 1.5% | 1.7 | 13 | u | x | x
NS(=O)(=O)c1cccc(NC(=O)COC(=O)CCCc2c[nH]c3ccccc23)c1 | 7% | 0.5% | 4.3 | 10 | -7.7% | -1.5 | -5
Cc1ccc(NC(=O)C2CCCN(C(=O)c3ccc(Cl)cc3)C2)cc1C (stereo not given) | 22% | -0.4% | 0.6 | 19 | 2.4% | -8.5 | -16
FC(F)(F)c1ccc(CN2C[C@@H]3C(c4ccccc4)C4(c5cccnc5)CC3(C4)[C@H]2c2ccccc2)cc1 (stereo not given in full) | -8%&-11% | u | -0.7 | 21 | -0.3% | -0.3&3.8 | 7
O=c1cc(-c2ccc(O)c(-c3c(O)cc(O)c4c(=O)cc(-c5ccc(O)cc5)oc34)c2)oc2cc(O)cc(O)c12 | 14% | 0.7% | -0.5 | 30 | -1.6% | 4.9 | 22
CCOC(=O)N1CCN(C(=O)c2ccc(N(Cc3ccccc3Cl)S(C)(=O)=O)cc2)CC1 | 10% | -0.9% | 1.9 | 1 | 0.1% | -4.8 | -7
CCCS(=O)(=O)c1c(S(=O)(=O)CCC)c2cc(C(C)(C)C)ccn2c1C(=O)c1ccccc1 | x | 1.1% | 1.1 | 23 | -3.5% | x | x
O=C(O)Cc1sc(-c2ccc(C(=O)O)cc2)nc1-c1ccccc1 | 17% | -1.8% | -0.3 | 2 | x | 0.8 | 3
CN(Cc1nc2ccccc2c(=O)[nH]1)C(=O)COc1ccccc1Cc1ccccc1 | x | 0.7% | 1.5 | -16 | -4.5% | x | 1
Cc1cccc(C(=O)NCCC(=O)NCc2ccccc2Cl)c1 | x | 0.8% | 0.2 | 35 | 1.2% | x | -7
CCN1C(=NCc2cccc(C(F)(F)F)c2)N[C@@H](c2cccc(C(F)(F)F)c2)C(C(=O)OC)=C1C | x | -0.5% | 4.4 | x | 2.2% | x | x
CCOc1ccc(S(=O)(=O)N2CCOCC2)cc1NC(=O)CN1C(=O)NC2(CCCC2)C1=O | x | -0.1% | -0.4 | 7 | -4.5% | x | 0
Cc1cc2c(cc1C)C(c1ccccc1F)CC(=O)N2 (stereo not given) | 1% | 4.9% | 1.5 | -2 | x | -0.7 | -34
Cc1cnc(CNC(=O)c2ccc3sc([C@@H]4O[C@H](CO)[C@H](O)[C@H](O)[C@H]4O)nc3c2)cn1 | x | 0.0% | -0.2 | x | -3.5% | x | x
O=C(c1cc(COc2ccc3ncccc3c2)on1)N1CCC[C@H]1CO | 1% | 1.9% | 0.2 | -5 | -11% | -1.4 | 0
O=C(Cn1c(-c2cccs2)cc2ccccc21)N1CCN(c2ccccc2F)CC1 | x | -2.1% | 2.7 | 27 | 14µM* | x | x
Cc1ccc(S(=O)(=O)NCCc2nnc3ccc(N4CCOCC4)nn23)cc1 | x | 3.4% | -0.9 | 5 | 0.8% | x | x
COc1ccc(Cn2c(=O)n(-c3ccc(OC)cc3)c(=O)c3c2c2cc(OC)ccc2n3C)cc1 | x | 3.4% | 0.2 | -14 | 4.4% | x | x
COc1nc(SCC(=O)Nc2ccccc2Cl)nc(N(C)C)n1 | 10% | 1.4% | 0.2 | -5 | 0.4% | -4.5 | -1
N[C@@H](Cc1ccccc1)c1nnc(SC/C=C/c2ccccc2)o1 | -13% | 0.7% | 0.3 | 4 | u | 5.0 | -5
CN1C(=O)c2ccccc2N(C)C1c1cccs1 (stereo not given) | -1% | -0.8% | 1.3 | 10 | 20µM* | 3.4 | -2
CCOC(=O)c1c(NC(=O)/C=C/c2ccc(OCC)cc2)sc2c1CCC2 | x | u | -0.1 | -4 | -0.2% | x | x
Cc1ccnc(NS(=O)(=O)c2ccc(NC(=O)c3cccc(Cl)c3)cc2)n1 | x | 1.2% | -1.0 | 3 | -2.2% | x | x
Cc1ccc(CSc2nnc3[nH]c(=O)cc(-c4ccccc4)n23)cc1 | x | -0.8% | 2.0 | 18 | -28% | x | x
CCc1ccc(NC(=O)c2ccc(-n3cncn3)c([N+](=O)[O-])c2)cc1 | x | 3.8% | 1.3 | 14 | 0.7% | x | -14
COc1ccc(-c2cc(-c3cc(OC)ccc3O)[nH]n2)cc1 | -10% | 7.7% | 1.7 | 22 | -16% | 3.6 | -3
COc1ccc(N2CCN(C(=O)NCc3ccc(OC)c(OC)c3)CC2)cc1 | -1% | -0.2% | 0.4 | 45 | x | -3.4 | -24
COc1cc(C(C(=O)NC(C)(C)C)N(Cc2ccc3c(c2)OCO3)C(=O)c2cnccn2)cc(OC)c1OC (stereo not given) | 21% | x | 0.0 | -11 | -0.3% | 2.4 | -6
O=C(c1ccco1)c1cn[nH]c1-c1ccc(Cl)cc1O | 12% | -0.1% | 1.5 | -8 | -2.1% | 3.0 | -9
CCOC(=O)N1CCN(Cc2cn[nH]c2-c2cc3ccccc3o2)CC1 | 7% | -3.2% | 1.2 | 8 | 0.1% | 0.5 | 7
CCOC(=O)c1ccc(N2C(=O)c3n[nH]c(C)c3C2c2ccc(OC)cc2)cc1 (stereo not given) | -11% | 1.2%[38.3 µM] | 2.5 | 0 | -1.0% | -1.0 | 7
Cc1nnc2sc(SCc3ccccc3Cl)nn2c1=O | 2% | 0.3% | 1.9 | 8 | x | 0.3 | -17
Fc1ccc(C(Nc2ccccn2)c2c[nH]c3ccccc23)cc1 (stereo not given) | -12% | 1.1% | 0.3 | -6 | -3.0% | 2.9 | 9
CCSc1nc(O)cc(=O)n1CC | 10% | 1.1% | 0.3 | -15 | 0.4% | 3.1 | 4
CCN(C(=O)CSc1nc2ccc(O)cc2c(=O)n1-c1ccc(OC)c(OC)c1)C1CCS(=O)(=O)C1 (stereo not given) | x | -0.9% | 0.9 | -7 | x | x | 5
CCCCOc1ccc(/C(O)=C2/C(=O)C(=O)N(CCCOC)C2c2ccncc2)cc1 (stereo not given) | 7% | -1.4% | 0.7 | 11 | -2.3% | 0.1 | 8
COc1ccc(C2C=C(c3ccc(F)cc3)NC(=S)N2)cc1OC (stereo not given) | 21% | 0.2% | -0.2 | 1 | -0.5% | -0.8 | -12
COC(=O)NCC(C)OC(=O)Nc1cccc(Cl)c1 (stereo not given) | -11% | 0.1% | -0.2 | -16 | -1.1% | 7.9 | u
O=C1C(=O)N(CCN2CCCCC2)c2ccccc21 | 25% | 0.5% | -0.2 | -7 | -4.0% | -1.3 | 5
COc1ccc2sc(N(Cc3cccnc3)C(=O)CCc3ccccc3)nc2c1 | x | 0.3% | -0.2 | -6 | -3.3% | x | x
O=C(CSc1nccc(=O)[nH]1)NC1CCCCCCC1 | x | 4.4% | 1.2 | -3 | 1.4% | x | x
COC(=O)c1ccc(CSc2nc3c(cnn3-c3ccc(Cl)cc3)c(=O)[nH]2)o1 | 18% | -1.1%[38.3 µM] | -0.1 | -8 | -12% | 0.4 | 6
Cc1ccc(S(=O)(=O)c2nc(-c3ccccc3)oc2NCCCN2CCOCC2)cc1 | 11% | -2.4% | 3.4 | 31 | -2.7% | 4.2 | -6
Cc1c(Nc2nc3ccccc3nc2NS(=O)(=O)c2cccc(Cl)c2)c(=O)n(-c2ccccc2)n1C | 12% | 2.6% | 0.1 | -3 | 1.0% | 1.8 | 2
COc1ccc(-c2cccc(-c3cc(=O)oc4cc5c(cc34)OCO5)c2)cc1 | u | 1.2% | -0.2 | -3 | u | 2.5 | x
COc1ccc(C(=O)COC(=O)c2ccc3ccccc3n2)cc1 | -4% | 0.3% | 0.9 | 9 | u | 2.7 | 9
CCN(CCCNC(=O)C1CCC(=O)N1Cc1ccccc1Cl)c1cccc(C)c1 (stereo not given) | 0% | 1.2% | 0.7 | 9 | 1.3% | 3.3 | -4
